# Screens deposited in PubChem by Fisher Drug Discovery Resource Center.
# NPYLR7 ag – mosquito NPYLR7 agonism. HEK293T NPYLR7/Galpha15, GCaMP6s calcium fluorescence. activation, % at 10 µM. 0.15% of 270,000 active; in the data active = activation above about 40%;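 note: 0% = vehicle and 100% = reference agonist at the receptor; some compounds past the cut are filed as inactive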
# NPYLR7 ag max-min – recorded beside NPYLR7 ag, whose call it bears; activation, %; measured here: Max-Min RFU normalised activation; some inactives read as strong as hits;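 span of the calcium signal over five minutes; 0% = vehicle and 100% = native peptide agonist; compound fluorescence can raise it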
# The depositor's hits bear a star. Not all compounds are listed, so the mix of outcomes need not match the whole.
SMILES	NPYLR7 ag	NPYLR7 ag max-min
CC/C=C(\C)C(=O)N1CCC(n2c(-c3ccccc3)nc3ccc(F)cc32)CC1	-6	-8
Cc1nn(-c2ccccc2Cl)c(C(C)C)c1C(=O)N1CCOCC1	-12	-6
Cc1ccc(-c2onc3c2CCCC3)cc1NC(=O)c1cc(F)c(Cl)nc1Cl	24	33
Nc1nc(Cl)cc(N2CCc3[nH]nc(C(F)(F)F)c3C2)n1	-3	-7
O=C(NCCc1ccccn1)c1cccc(Nc2c(Oc3cccc(Cl)c3)cnn(-c3ccccc3)c2=O)c1	2	7
O=C(c1ccc(=O)[nH]c1)N1CCOC(Cc2cccc3ccccc23)C1 (stereo not given)	4	1
CC1(Cc2ccc(Cl)c(Cl)c2)C(=O)Nc2ccc(-c3cccc(C(F)(F)F)c3)cc21 (stereo not given)	0	8
CCCCN(CC(=O)N1c2ccccc2-n2cccc2C1c1cccc(C)c1)C(=O)Nc1ccc(OC)cc1 (stereo not given)	10	24
CC(C(=O)NCc1ccco1)n1c(=O)n(-c2ccccc2F)c(=O)c2ccccc21 (stereo not given)	12	24
O=C(CCC1(Cc2ccc(F)cc2)CCC(=O)N1)NC(c1ccccn1)C(F)(F)F (stereo not given)	2	-2

# Next records
SMILES	NPYLR7 ag	NPYLR7 ag max-min
O=S(=O)(c1cccc(-c2n[nH]c(=S)o2)c1)N1CCOCC1	6	4
O=C(NCCN1CCN(C(=O)c2cccc(F)c2)CC1)C(=O)Nc1ccc(Br)cc1	-3	-9
COc1ccc(-c2nc(-c3c(F)cccc3F)no2)c(OC)c1	4	5
Cc1cc(C(=O)N2CCN(C(c3ccccc3)c3ccccc3)CC2)n(C)n1	3	2
O=C(NCCc1cccc(F)c1)c1ccc(N2CCCC2=O)cc1	-12	-12
CN(Cc1nc2c(s1)CCCC2)C(=O)Cc1ccccc1O	-4	-4
CN(C1CCCC1)S(=O)(=O)c1cc(Cl)ccc1C#N	8	8
CC1=NN(CCCc2ccccc2)c2nc3c(c(=O)n(C)c(=O)n3C)n2C1	-12	-13
COCCN1CCCC[C@]2(C[C@H](C(=O)O)[C@H](c3ccccc3)N2C(=O)N2CCOCC2)C1=O	2	11
O=[N+]([O-])c1ccc(C2CN=C(NC3CCCCC3)S2)cc1 (stereo not given)	-3	-4

# Further records:
SMILES	NPYLR7 ag	NPYLR7 ag max-min
c1ccc(Cc2nc(N3CCCN(Cc4ccccn4)CC3)c3cnn(-c4ccccc4)c3n2)cc1	9	11
CC(C)(C)c1nc(COc2ccccc2C#N)cs1	-2	-5
CCn1c(CNc2c(C#N)c(=O)n(C)c(=O)n2C)nc2ccccc21	-1	-2
Cc1nc(-c2ccc(Cl)cc2)nc(N2CCN(C(=O)c3cccc(C(F)(F)F)c3)CC2)c1Cc1ccccc1	-5	0
COCCCN(CC(=O)N1CCc2sccc2C1c1ccc(Cl)cc1Cl)C(=O)C(Cl)c1ccccc1 (stereo not given)	-9	-13
CCOC(=O)c1cc(-c2ccc(N3CCN(C(=O)Cc4cccs4)CC3)cc2)n(-c2ccccc2OC)n1	25	22
Cc1ccc(NC(=O)C2CCCCN2Cc2cccnc2)c(F)c1 (stereo not given)	6	2
COc1ccc(-c2[nH]ncc2/C=N\NC(=O)C(C)Oc2ccc(Cl)cc2Cl)cc1 (stereo not given)	1	1
Brc1cc2c(cc1CSc1nnc(C3CC3)n1-c1ccccc1)OCCO2	-2	-1
Cc1ccc(N2C(=O)CSC2c2ccccc2NC(=O)C2CC2)cc1 (stereo not given)	-3	6

# Remaining list, next part.
SMILES	NPYLR7 ag	NPYLR7 ag max-min
O=S1(=O)N(c2ccccc2)C[C@H](O)[C@]12CCN(c1ccccn1)C2	6	9
NC(=O)c1ccc(NC(=O)CC23CC4CC(CC(C4)C2)C3)cc1	-3	-7
CCOC(=O)c1cc(-c2cccc(NC(=O)C3CCC3)c2)n(-c2ccc(OC)cc2)n1	19	14
NC(=O)CN1CCC=C(C2CCCCN2C(=O)Cc2ccccc2)C1 (stereo not given)	5	3
CCN1C(=O)N(Cc2cccc(OC)c2)C(=O)C12CCN(CC1CC=CCC1)CC2 (stereo not given)	8	8
Cc1nn2c(nnc3c(=O)[nH]c(N4CCCCC4)nc32)c1-c1ccccc1	44	35
O=c1c2cnc3nc(C(F)(F)F)nn3c2ccn1CCN1CCOCC1	3	5
COCCN(Cc1ccccc1OS(=O)(=O)c1ccc(OC)cc1)C(=O)c1ccco1	14	5
CC(=O)c1c(C)[nH]c(C(=O)C(C)SCc2ccc(Cl)cc2)c1C (stereo not given)	6	4
CCOc1ccc2nc(N(Cc3ccccn3)C(=O)c3ccc(N4C(=O)CCC4=O)cc3)sc2c1	-7	-9

# Molecules listed so far with bromine (two):
SMILES	NPYLR7 ag	NPYLR7 ag max-min
O=C(NCCN1CCN(C(=O)c2cccc(F)c2)CC1)C(=O)Nc1ccc(Br)cc1	-3	-9
Brc1cc2c(cc1CSc1nnc(C3CC3)n1-c1ccccc1)OCCO2	-2	-1

# Later entries
SMILES	NPYLR7 ag	NPYLR7 ag max-min
COCCNC(=O)CSc1nc(-c2cccc(C)c2)nc2c1c(=O)n(C)c(=O)n2C	-4	-7
CC(C)(C)C(=O)NCC1(c2ccc(Cl)cc2)CCOCC1	6	2
C=CCn1c(=NC(=O)c2ccc(S(=O)(=O)N(C)C)cc2)sc2c(C)cc(C)cc21	1	0
CCOc1ccccc1N1CCN(C(=O)c2cc3n(n2)CCN(Cc2cccc(Cl)c2)C3=O)CC1	-12	-1
Cc1ccc(-n2c(SCc3ccc(F)cc3)nnc2C(Cc2ccccc2)NC(=O)Nc2c(C(C)C)cccc2C(C)C)cc1 (stereo not given)	15	15
O=S(=O)(NCc1cnn2ccccc12)c1ccccc1F	8	7
CC(C)(C)OC(=O)Nc1ccc(C(=O)N2CCCC2c2ccc3c(c2)OCCO3)cc1 (stereo not given)	0	1
C=CCCC(O)CN(Cc1nc2scc(-c3ccccc3C)c2c(=O)[nH]1)Cc1ccco1 (stereo not given)	-6	-5
CCCc1nc(C)c(Cn2cnc3sc4c(c3c2=O)CCNC4)s1	14	13
O=c1nc(SCCc2ccccc2)nc2ccccn12	7	2

# Compound profiles, as listed above.
# Cc1nn(-c2ccccc2Cl)c(C(C)C)c1C(=O)N1CCOCC1 is listed as NPYLR7 ag = -12; NPYLR7 ag max-min = -6
# O=c1c2cnc3nc(C(F)(F)F)nn3c2ccn1CCN1CCOCC1 is listed as NPYLR7 ag = 3; NPYLR7 ag max-min = 5

# The list continues:
SMILES	NPYLR7 ag	NPYLR7 ag max-min
O=C(CN1C(=O)NC2(CCCCC2)C1=O)NCCc1ccco1	16	19
CN(CCNS(=O)(=O)c1c(Cl)cc(Cl)cc1Cl)C1CC1	-1	1
C=CCNC(=O)NC1CCN(c2ccccc2C(=O)NCCCOC)CC1	23	19
CCOc1ccc(N=C2SC(C(=O)Nc3ccccc3OC)CC(=O)N2Cc2ccccc2)cc1 (stereo not given)	6	1
COc1ccc(NC(=O)CSc2nc3[nH]ncc3c(=O)[nH]2)c(OC)c1	-3	-5
Cn1c(SCCO)nc2sc(-c3ccccc3)cc2c1=O	-1	-2
CCOCCCn1c(SCc2ccc(OC(C)=O)cc2)nc2cc(S(=O)(=O)N3CCCC(C)C3)ccc21 (stereo not given)	10	4
Cc1ccc(-c2cc(C(F)(F)F)n3ncc(C(=O)NCc4cccnc4)c3n2)cc1	-8	-15
COC(C)(C)CC(C)NCc1nc(-c2ccccc2C)no1 (stereo not given)	3	23
c1ccc(-c2noc3nc(OCc4ccccn4)ccc23)cc1	7	5

# (further entries)
SMILES	NPYLR7 ag	NPYLR7 ag max-min
CCOc1cc(CN2CCCn3cccc3C2c2ccccc2CC)ccc1O (stereo not given)	1	8
O=C1CCC2(CCN1)CCN(C(=O)Cc1ccc(O)c(Cl)c1)CC2	13	9
Cc1ccc(S(=O)(=O)N2CCC3(CC2)SCCN3C(=O)c2cccc([N+](=O)[O-])c2)cc1	-10	-4
O=C1CCc2cc(OCC(=O)NC3(c4cccc(Br)c4)CCC3)ccc2N1	0	6
O=C(NC(c1ccccc1)c1cnccn1)C1CCN(CCCOc2ccccc2)CC1 (stereo not given)	2	-2
O=C(NCCCn1nnc2ccccc21)c1cccc2ccnn12	-2	-5
Cc1ccc(Cc2nsc(N3CCC(CNC(=O)Nc4ccc(C)c(C)c4)CC3)n2)cc1	19	16
O=C(Cc1ccccc1)Nc1c(-c2ccc(F)c(F)c2)nc2ccccn12	-5	-4
OC(c1ccccc1)c1ncc(-c2ccc(Cl)cc2)[nH]1 (stereo not given)	5	3
CN(C)S(=O)(=O)c1ccc(C(=O)Nc2nc(-c3cccs3)cs2)cc1	17	16

# The list continues:
SMILES	NPYLR7 ag	NPYLR7 ag max-min
COCC1CCCN(C(=O)c2ccc(N3CCN(C)CC3)nc2)C1 (stereo not given)	7	2
O=c1oc2ccccc2cc1-c1csc(NN=Cc2ccccc2)n1	9	5
COc1ccc(C(CC(=O)N2CCC(n3c(=O)[nH]c4ccccc43)CC2)c2c[nH]c3ccccc23)cc1OC (stereo not given)	-3	4
Cc1cc(=O)oc2c(C(=O)/C=C/c3ccccn3)c(O)ccc12	0	0
CC(=O)Nc1ccc(CN2CCn3c(nnc3C(=O)NCC3CC3)C2)cc1	8	4
COc1cc(C=CC(=O)Nc2nnc(C3CC3)s2)cc(OC)c1	2	6
CO/N=C(/C(=O)NC1CCC(C(C)(C)C)CC1)c1csc(NC=O)n1 (stereo not given)	-7	-12
COC(=O)c1nnn(-c2nonc2OC)c1C	2	-2
O=C(CSc1nc(=O)n(CCCN2CCOCC2)c2c1CCCC2)Nc1ccccc1Cl	-1	0
O=C(O)CC(c1ccc(Cl)nc1)c1c[nH]c2ccc([N+](=O)[O-])cc12 (stereo not given)	0	0

# (further entries)
SMILES	NPYLR7 ag	NPYLR7 ag max-min
O=S(=O)(NCc1nc2ccccc2s1)N1CCCCCC1	1	-1
CCN(CC)CCCNCc1cnc(SC)nc1N1CCN(c2ccc(F)cc2)CC1	2	-1
CSc1cccc(NC(=O)/C=C/c2ccc3c(c2)OCO3)c1	-6	-4
O=C(c1ccco1)N1CCN(c2nc(-c3ccco3)nc3cc(Cl)ccc23)CC1	-2	-2
COCCN(Cc1cccc(OS(=O)(=O)c2ccc(F)cc2)c1)C(=O)NC(C)C	26	27
O=C(CCN1CCCCO1)NC1CCCN(Cc2ccccc2F)C1 (stereo not given)	16	3
Cc1cc(C)c2sc(N(CCCN3CCOCC3)C(=O)C3COc4ccccc4O3)nc2c1 (stereo not given)	0	-5
COc1cc(CSc2nnc(NC(C)=O)s2)cc(OC)c1	5	9
CC(=O)N1c2ccccc2N=C2CC(C)(C)CC(=O)C2C1c1ccc(Br)s1 (stereo not given)	4	2
COc1ccc(S(=O)(=O)N(CC(=O)NC(C(C)C)C(C)C)c2ccc(C)cc2)cc1OC	-16	-11

# 2 entries from above in a different format:
> CC(=O)N1c2ccccc2N=C2CC(C)(C)CC(=O)C2C1c1ccc(Br)s1 (stereo not given)
- NPYLR7 ag: 4
- NPYLR7 ag max-min: 2
> COc1ccc(S(=O)(=O)N(CC(=O)NC(C(C)C)C(C)C)c2ccc(C)cc2)cc1OC
- NPYLR7 ag: -16
- NPYLR7 ag max-min: -11

# Going on with the list.
SMILES	NPYLR7 ag	NPYLR7 ag max-min
O=C(Nc1ccc(-c2cccc(-c3ccc4c(c3)OCCO4)n2)cc1)c1c(F)c(F)c(F)c(F)c1F	8	5
O=C(c1csc(-c2cc3ccccc3[nH]2)n1)N1CCN(CCc2ccccc2)CC1	11	9
CCC(NC(=O)c1cccc(OC)c1)C1c2cc(OC)c(OC)cc2CCN1Cc1ccccc1F (stereo not given)	3	2
CC(C)c1nccc(CN2CC[C@H](CO)[C@H](O)C2)n1	8	8
CC(C)CN1CC(C(=O)N2CCc3c(ncnc3N(C)C)C2)CC1=O (stereo not given)	13	3
COC(=O)c1ccc(-c2cc(C(=O)O)c3[nH]c(C)nc3n2)cc1	17	10
N#CC(=Cc1cc(Br)cc(Br)c1O)c1nc2ccccc2[nH]1	6	11
COc1cccc(-c2cc(C(=O)NCCN3CCOCC3)nc3cc(C(C)(C)C)nn23)c1	1	15
O=C(CCN1CC(C(=O)O)CC1=O)Nc1cc(F)ccc1F (stereo not given)	31	14
c1coc(CN=C2NN=C(c3ccc4c(c3)OCCCO4)CS2)c1	1	-1

# Later entries.
SMILES	NPYLR7 ag	NPYLR7 ag max-min
COc1ccc(CNC(=O)Cn2c(=O)c3c(ncn3C)n(C)c2=O)cn1	13	12
CCn1nnc2c(NCc3cccc(OC)c3)ncnc21	-3	5
O=C(NCc1ccccc1)c1sccc1Br	5	4
O=C(CCSc1ccc(F)cc1)NNS(=O)(=O)c1cccc(F)c1	6	5
CCN(C(=O)c1ccc(C)cc1O)C1CC1	-11	-13
Cc1ccc2nc(C)c(NC(=O)COc3ccc(Cl)cc3)c(=O)n2c1	3	1
Cc1nc(C2CCNCC2)cc(N2CCc3c([nH]c4ccccc34)C2)n1	6	-2
CCN=c1scc(-c2ccc(Br)cc2)n1N=Cc1ccc2c(c1)OCO2	-2	-8
CC(C)Cc1nc(N2CCCN(C(=O)c3ccc(C(F)(F)F)cc3)CC2)c2c(-c3ccc4ccccc4c3)noc2n1	2	16
Cc1ccccc1S(=O)(=O)NC(=O)Cn1nnc(COc2ccc3ccccc3c2)c1C	1	1

# More records:
SMILES	NPYLR7 ag	NPYLR7 ag max-min
O=C(Nc1nn(Cc2ccc(COc3ccc4ccccc4c3)cc2)c2ccccc12)c1ccco1	18	23
O=C(c1cc(-c2ccc(F)cc2)nc2cc(-c3ccccc3)nn12)N1CCN(Cc2ccc3c(c2)OCO3)CC1	14	13
CCCC(C)C1c2ccc(N)cc2OC(=N)C1C#N (stereo not given)	9	7
CCCCCCCCCCCC(=O)N1CCN(C(=O)c2cc(-c3cccc(OC)c3)n(-c3ccccc3F)c2C)CC1	26	21
Cc1cc(C)cc(-n2nnc(C(=O)N(C)C3CCS(=O)(=O)C3)c2C)c1 (stereo not given)	6	3
CCOC(=O)C1CCCN(C(=O)CN2CC3=C(C2=O)C(c2cccc(OC)c2OC)NC(=O)N3C)C1 (stereo not given)	1	11
COc1cccc(-n2cc(CN(C)Cc3nc4ccccc4[nH]3)cn2)c1	4	3
